Source: PubChem BioAssay
MITF inhib: inhibitors of MITF, primary screen, MITF inhibitor project, cell-based, luminescence | TRPM1 promoter luciferase, 24 h | inhibition, % (test concentration not listed) | actives 0.28% (n = 37,000) | AID 2240, 2010;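 active = most replicates at 85% or more, or half of them and the mean; inconclusive = half reach 85% but not the mean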;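 note: human melanocyte line stably carrying TRPM1 promoter luciferase reporter; 0% = vehicle wells and 100% = a positive control; the first replicate is given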
PD-1 reversal: activators reversing PD-1 mediated T-cell inhibition, primary screen, luminescence, primary human CD4 T cells, PD-L1 beads | activation, % (no concentration beside the values) | 29,000 tested, under 10 active | AID 2316, 2010 | CellTiter-Glo 96 h;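 active = replicate mean of 50% or more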;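 note: 0% = median vehicle wells and 100% = positive control; 100 nL library stock added to about 50 µL; numbers are from one replicate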
Hedgehog inh: Hedgehog pathway signaling inhibitors, primary screen, luminescence, Shh-LIGHT2 cells, Gli-luciferase. Shh-LIGHT2 Gli-luciferase reporter, 30 h. inhibition, % (concentration not given with the values). actives 2.1% (n = 22,000). AID 2313, 2010;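 active = replicate mean of 65% or more; inconclusive = mean lower but half the replicates past it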;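 note: pathway switched on by Shh-conditioned medium diluted 1 in 25 in low serum; 100 nL library stock added to about 40 µL; 0% = median of neutral wells and 100% = positive control level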
YB-1 expression: inhibitors of YB-1 gene expression, primary screen, cell-based, fluorescence. U2OS, qRT-PCR YB-1 vs CDIP delta delta Cp, 16 h; stronger effect = higher value; zero = DMSO, each unit about twofold. delta delta Cp (YB-1 minus CDIP) (test concentration not listed). actives 0.37% (n = 30,000). AID 434959, 2010;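 active = delta delta Cp rounded down to an integer at or above 3, about 3 SD of DMSO wells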;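 note: higher means less YB-1 transcript or more CDIP transcript relative to DMSO; stock transfer was 100 nL into about 100 µL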
* marks the source's active call; other numbers are inactive results; ? = inconclusive; . = no result given; & = joins results of further samples. The list is partial; count on the stated rates, not on these rows.

mol | PD-1 reversal | MITF inhib | YB-1 expression | Hedgehog inh
O=C(CCl)c1cc(Br)c(Br)s1 | -26 | 11 | 0.53 | -33
COc1c(CC=C(C)C)c2c(c3oc(=O)c(-c4ccc(O)cc4)c(O)c13)C=CC(C)(C)O2 | 2.9 | -1 | -0.42 | ?
C=CC(C)(C)c1cc2cc3c(cc2oc1=O)O[C@H](C(C)(C)O)C3 | -2.0 | 33 | 0.038 | -36
O=C(c1ccccc1)C12CN3CN(CN(C3)C1)C2 | 1.2 | -6 | 0.56 | -6
C#CCN(C)[C@H](C)Cc1ccccc1 | 3.2 | 2&13 | 0.35&0.32 | -19&-14
c1ccc2c(c1)[I+]c1ccccc1-2 | -27 | 90* | 0.23 | 89*
COC1CC(OC2C(C)OC(OC3C(C)OC(OC4C(C)OC(O[C@H]5CC[C@@]6(C)C(=CC[C@]7(O)C6CC(OC(=O)c6ccccc6)[C@@]6(C)[C@]7(O)CC[C@@]6(O)C(C)=O)C5)CC4OC)CC3OC)CC2OC)OC(C)C1O (some centres undefined) | -3.7 | 35 | 0.22 | -48
CC(C)(O)[C@H]1O[C@H]2CC[C@@]3(C)[C@@](O)(CC[C@H]4Cc5c([nH]c6ccccc56)[C@@]43C)C2=CC1=O | . | -32 | -0.55 | 30
C[C@H](N)C(=O)N[C@@H](C)C(=O)N[C@@H](Cc1ccccc1)C(=O)CCl | . | -18 | 0.49 | 12
Cc1cc(OCC(=O)N(C)C)c2c3c(c(=O)oc2c1)CCCC3 | -1.2 | -4 | -0.54 | .

Rewritten field by field: entries from further up.
C=CC(C)(C)c1cc2cc3c(cc2oc1=O)O[C@H](C(C)(C)O)C3
  PD-1 reversal: -2.0; MITF inhib: 33; YB-1 expression: 0.038; Hedgehog inh: -36

O=C(c1ccccc1)C12CN3CN(CN(C3)C1)C2
  PD-1 reversal: 1.2; MITF inhib: -6; YB-1 expression: 0.56; Hedgehog inh: -6

The listing picks up; the six compounds before the break are reprinted first.
mol | PD-1 reversal | MITF inhib | YB-1 expression | Hedgehog inh
C#CCN(C)[C@H](C)Cc1ccccc1 | 3.2 | 2&13 | 0.35&0.32 | -19&-14
c1ccc2c(c1)[I+]c1ccccc1-2 | -27 | 90* | 0.23 | 89*
COC1CC(OC2C(C)OC(OC3C(C)OC(OC4C(C)OC(O[C@H]5CC[C@@]6(C)C(=CC[C@]7(O)C6CC(OC(=O)c6ccccc6)[C@@]6(C)[C@]7(O)CC[C@@]6(O)C(C)=O)C5)CC4OC)CC3OC)CC2OC)OC(C)C1O (some centres undefined) | -3.7 | 35 | 0.22 | -48
CC(C)(O)[C@H]1O[C@H]2CC[C@@]3(C)[C@@](O)(CC[C@H]4Cc5c([nH]c6ccccc56)[C@@]43C)C2=CC1=O | . | -32 | -0.55 | 30
C[C@H](N)C(=O)N[C@@H](C)C(=O)N[C@@H](Cc1ccccc1)C(=O)CCl | . | -18 | 0.49 | 12
Cc1cc(OCC(=O)N(C)C)c2c3c(c(=O)oc2c1)CCCC3 | -1.2 | -4 | -0.54 | .
O=c1cccc2n1CC1CNC[C@H]2C1 | 0.3 | -4 | 0.05 | -11
OCC1OC(n2cnc3cc(Cl)c(Cl)cc32)[C@@H](O)[C@H]1O (some centres undefined) | 1.8 | -5 | 0.12 | 56
Clc1cccc(SC2CCNCC2)n1 | -8.3 | 7 | 0.54 | 10
CN1CCc2cc(O)cc3c2[C@H]1Cc1ccc(O)c(O)c1-3 | . | -18 | 0.23 | 31
COc1ccc(C[C@H]2NC[C@H](O)[C@H]2OC(C)=O)cc1 | . | 104* | 1.2 | 107*
CC(=O)O[C@H]1CC[C@@]2(C)C(=CC[C@@H]3[C@@H]2CC[C@]2(C)C(=O)CC[C@@H]32)C1 | 2.4 | -7 | -0.092 | -25
CC(NC(C)(C)C)C(=O)c1cccc(Cl)c1 (centres undefined) | . | -1 | 0.21 | -29
CCNC(=O)[C@H]1O[C@@H](n2cnc3c(N)ncnc32)C(O)[C@H]1O (some centres undefined) | 7.9 | -1 | -0.28 | 42
CCCC(C)n1[nH]c(=O)c2c1NC(=O)CSC2c1cccc([N+](=O)[O-])c1 (centres undefined) | 3.1 | 7 | . | .
